# Source: PubChem BioAssay
# VCAM-1 augmentation: boosters of cytokine-driven VCAM-1 levels – imaging, high-content imaging, pooled HUVEC, TNFa stimulus (AID 457). Pooled HUVEC, TNFa-induced VCAM-1 immunofluorescence imaging; hits of this screen are not shown here. calls only. 10,000 tested, 0.2% active;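 active = a top-ranked rise in VCAM-1 staining upheld on image or statistical review; inactive = the rest, including candidates rejected on review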;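 note: compounds tested at 5 µM in the well; cells exposed to compound for 24 hours before fixing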
# FPR binder: human FPR ligand, with FPRL1 counter-screen | P21462 | FPR-expressing cells, fluorescent ligand binding, flow cytometry | inhibition, %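 (tested at 6.7 µM)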 | 24,000 tested, 0.74% active;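 note: 0% = buffer wells and 100% = receptor blocker peptide wells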
# Target sequence (P21462 whole entry, looked up): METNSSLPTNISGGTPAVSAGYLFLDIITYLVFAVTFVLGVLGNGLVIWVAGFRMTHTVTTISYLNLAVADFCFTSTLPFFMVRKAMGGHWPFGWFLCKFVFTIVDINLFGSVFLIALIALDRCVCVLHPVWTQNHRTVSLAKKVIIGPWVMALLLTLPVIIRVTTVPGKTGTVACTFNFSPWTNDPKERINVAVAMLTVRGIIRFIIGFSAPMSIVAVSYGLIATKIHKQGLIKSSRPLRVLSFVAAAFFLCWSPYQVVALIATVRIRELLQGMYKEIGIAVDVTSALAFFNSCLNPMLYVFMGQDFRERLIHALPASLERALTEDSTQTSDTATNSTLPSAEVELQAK
# VCAM-1 down imaging: suppression of endothelial VCAM-1 upregulation – imaging, high-content imaging, pooled HUVEC, TNFa stimulus (AID 456); 10,000 tested, 0.2% active; inhibition, % at 5 µM, or IC50 in µM where a hit was titrated; HUVEC TNFa-induced VCAM-1 surface expression, immunofluorescence imaging; numbers were filed only for top-ranked candidate wells;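 active = top tenth filtered wells with inhibition above zero that passed visual or statistical confirmation; inactive = the rest, including hits rejected on review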;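 note: 0% = stimulated vehicle wells and 100% = unstimulated cells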
# VCAM-1 inhibition: inhibitors of TNFa-induced VCAM-1 surface display, cell-based, plate reader, pooled HUVEC, TNFa stimulus (AID 454). HUVEC TNFa-induced VCAM-1 surface immunofluorescence, plate reader; numbers were filed only for top-ranked candidate wells. inhibition, % at 5 µM. 10,000 tested, 0.2% active;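 active = compound among top-ranked inhibitors of TNF-induced VCAM-1 adhesion protein staining, with the hit upheld by image or statistical review; inactive = the rest, including hits rejected on review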;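 note: 0% = TNFa with vehicle and 100% = cells without TNFa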
# FPRL1 ligand: ligands of human FPRL1, also counter-screen for FPR ligands | FPRL1-expressing cells, fluorescent ligand binding inhibition, flow cytometry | inhibition, %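 (tested at 6.7 µM)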 | 24,000 tested, 0.3% active | P25090;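 note: 0% = buffer alone and 100% = receptor blocker peptide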
# Target sequence (P25090 whole entry, looked up): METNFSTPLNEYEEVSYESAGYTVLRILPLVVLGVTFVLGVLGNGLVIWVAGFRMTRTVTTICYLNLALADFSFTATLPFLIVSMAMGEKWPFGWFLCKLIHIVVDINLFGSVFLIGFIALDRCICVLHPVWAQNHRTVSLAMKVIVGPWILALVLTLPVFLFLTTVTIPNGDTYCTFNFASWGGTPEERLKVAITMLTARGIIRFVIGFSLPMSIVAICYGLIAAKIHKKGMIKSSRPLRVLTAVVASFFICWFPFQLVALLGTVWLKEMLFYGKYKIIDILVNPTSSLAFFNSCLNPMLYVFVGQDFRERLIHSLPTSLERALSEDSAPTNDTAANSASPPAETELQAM
# * marks the source's active call; other numbers are inactive results; i = inactive; nt = no result given.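 Rule for the calls, unless noted: active = mean above 30%; inconclusive = self-fluorescent; inactive = the rest.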 A portion of the library; the hit share may differ from the screen's.
# Below each compound – FPRL1 ligand	VCAM-1 inhibition	VCAM-1 augmentation	VCAM-1 down imaging	FPR binder
COC(=O)C1C(=O)c2c([nH]c(C(=O)OCCSC)c2C)CC1C (configuration not stated)
 : 5	nt	nt	nt	1
c1ccc2ncc(-n3cnnn3)cc2c1
 : 2	i	i	i	-5
COc1cc2ccccc2cc1C(=O)Nc1ccc(S(=O)(=O)Nc2cc(C)on2)cc1
 : 1	nt	nt	nt	0
CCOc1c(OC)cccc1C1CC(=O)Nc2cc(OC)c(OC)cc21 (configuration not stated)
 : 3	nt	nt	nt	0
O=C(Oc1ccc(Cl)cc1N1C(=O)CCC1=O)c1ccco1
 : 5	i	i	i	2
Cc1cc(C)n(-c2ccc(N3CCOCC3)nn2)n1
 : 0	i	i	i	-1
CCn1c(=O)cc(OCC(=O)NC2CCCCC2)c2ccccc21
 : 2	78	i	i	-1
COc1ccc(NC(=O)CCS(=O)(=O)c2ccc(OC)cc2)cc1
 : 2	i	i	i	1
CCOC(=O)c1cccc(NC(=O)CCc2nc(-c3ccc(C)cc3)no2)c1
 : 0	nt	nt	nt	-4
Cc1cccc(N2CCN(C(=O)C3CCN(S(=O)(=O)c4cnc[nH]4)CC3)CC2)c1C
 : -2	nt	nt	nt	-2

# Fetched one by one from the entries so far, 4 records:
# Below each compound – FPRL1 ligand	VCAM-1 inhibition	VCAM-1 augmentation	VCAM-1 down imaging	FPR binder
CCOC(=O)c1cccc(NC(=O)CCc2nc(-c3ccc(C)cc3)no2)c1
 : 0	nt	nt	nt	-4
Cc1cc(C)n(-c2ccc(N3CCOCC3)nn2)n1
 : 0	i	i	i	-1
COC(=O)C1C(=O)c2c([nH]c(C(=O)OCCSC)c2C)CC1C (configuration not stated)
 : 5	nt	nt	nt	1
COc1ccc(NC(=O)CCS(=O)(=O)c2ccc(OC)cc2)cc1
 : 2	i	i	i	1

# Further results:
# Below each compound – FPRL1 ligand	VCAM-1 inhibition	VCAM-1 augmentation	VCAM-1 down imaging	FPR binder
CCOC(=O)CNC(=O)c1c(C)nn(-c2ccccc2)c1Cl
 : -2	i	i	i	-8
O=C(c1ccc(S(=O)(=O)N2CCCCC2)cc1)N1CCN=C1SCc1cccnc1
 : -8	nt	nt	nt	4
Cc1cc(Nc2ccc(Cl)cc2)n2nnnc2n1
 : 2	nt	nt	nt	0
COc1ccc(N2CCC(CNS(=O)(=O)c3cccc(C(F)(F)F)c3)C2)cc1 (configuration not stated)
 : -2	i	i	i	-3
CCOC(=O)c1c(C)[nH]c(C=Nc2ccccc2)c1O
 : 9	i	i	i	25
Cn1c(=O)oc2cc(S(=O)(=O)N3CCCC(C(=O)NCc4ccc5c(c4)OCO5)C3)ccc21 (configuration not stated)
 : 1	nt	nt	nt	-2
CC(c1ccccc1)n1cnc2ccccc21 (configuration not stated)
 : -2	i	i	i	6
COc1ccccc1N1CCN(C(=O)c2cc3c(-c4ccc(Cl)cc4)nn(C)c3s2)CC1
 : -11	nt	nt	nt	-9
Cc1cnc(NC(=O)CSc2nnc(COc3c(C)cccc3C)o2)s1
 : -2	i	i	i	2
CC(C)OC(=O)c1ccc(OC(=O)c2cccnc2)cc1
 : -3	i	i	i	-3
CCOC(=O)Cn1c(=O)oc2cc(S(=O)(=O)N(CCN(C)C)Cc3ccccc3)ccc21
 : -4	nt	nt	nt	-22
COc1ccc(C2C=C(c3cccs3)Nc3nc(CCCO)nn32)cc1 (configuration not stated)
 : -27	nt	nt	nt	-12
CCOC(=O)CNS(=O)(=O)c1c(C)noc1C
 : 2	i	i	i	-3
Nn1c(SCC(=O)Nc2ccc3c(c2)OCCO3)nnc1C(F)(F)F
 : -2	i	i	i	0
COc1cc(Nc2cc(C)nc3ncnn23)cc(OC)c1OC
 : 0	i	i	i	0
Cc1c(C(=O)OC2CCCC2)[nH]c2c1C(=O)CC(c1ccco1)C2 (configuration not stated)
 : -2	nt	nt	nt	12
CCCCOc1ccc(C(=O)Nc2ccc(N3CCN(C(C)=O)CC3)cc2)cc1
 : 7	i	i	i	-3
CCCS(=O)(=O)N1CCn2c(nc3ccccc32)C1
 : -1	nt	nt	nt	-3
COc1ccc(NC(=O)CN2CCN(S(=O)(=O)c3ccc(F)cc3)CC2)cc1Cl
 : 0	nt	nt	nt	1
O=C(Nc1nc2ccccc2[nH]1)c1ccc(F)cc1
 : 5	nt	nt	nt	2
COc1cccc(/C(O)=C2/C(=O)C(=O)N(Cc3ccco3)C2c2ccncc2)c1 (configuration not stated)
 : -2	nt	nt	nt	12
CC1(C)N=C(c2ccc(Cl)cc2Cl)C(=O)N1
 : 9	nt	nt	nt	-1
CCCCOc1ccc(/C(O)=C2/C(=O)C(=O)N(CCCOC)C2c2ccncc2)cc1C (configuration not stated)
 : -3	nt	nt	nt	14
COC(=O)c1ccccc1NC(=O)c1noc2c1CCCC2
 : -5	nt	nt	nt	8
CCOC(=O)c1[nH]c(C)c(C(=O)Nc2ccc3c(c2)OCCO3)c1C
 : 4	nt	nt	nt	1
Cc1ccc(-n2c(C)nc3c(cnn3-c3ccc(F)cc3)c2=O)cc1
 : -11	nt	nt	nt	8
CCOC(=O)N1CCC(N(CCOC)C(=O)Nc2ccc(CC)cc2)CC1
 : -3	nt	nt	nt	2
COc1ccc(N2CCN(c3oc(COc4ccccc4Cl)nc3C#N)CC2)cc1
 : -10	i	i	i	-2
O=C(NCc1ccccn1)C(C(=O)c1ccc(F)cc1)n1ccccc1=O (configuration not stated)
 : -12	i	i	i	5
O=C(CN1CCOCC1)Nc1ccc(-c2nc3ccccc3[nH]2)cc1
 : 0	nt	nt	nt	-9
Fc1ccccc1Cn1nnc2c(-n3ccnc3)ncnc21
 : 5	i	i	i	2
CC1=CC2=C(OC1N(C)C)c1cccc3cccc(c13)C2=O (configuration not stated)
 : -3	i	i	i	-3
O=C(Nc1nc2ccccc2n1CCOc1ccc(Cl)cc1)c1ccco1
 : -21	nt	nt	nt	-27
COc1ccccc1NC(=O)CSc1nnc(Cn2nnc(-c3ccccc3)n2)n1-c1ccccc1
 : 5	i	i	i	24
O=C(Nc1cccnc1)c1noc2c1CCCCC2
 : 5	i	i	i	-2
Cc1cc(=O)n(-c2ccc3ccccc3n2)[nH]1
 : -2	i	i	i	-7
COc1cccc(-c2nnn(CC(=O)O)n2)c1
 : 0	i	i	i	4
CCC(C)NC(=O)CCC(=O)Nc1ccc2nc(N3CCOCC3)cc(C)c2c1 (configuration not stated)
 : 2	nt	nt	nt	3
O=C(Nc1ccc(C(F)(F)F)cc1)C1CCCN1S(=O)(=O)c1cccc2cccnc12 (configuration not stated)
 : -4	nt	nt	nt	12
COc1ccc(OC)c(-c2nnc(SCC(=O)NC3CCCCC3)o2)c1
 : 1	i	i	i	-2
O=C(O)c1ccc(S(=O)(=O)Cc2ccccc2)cc1
 : 3	i	i	i	11
N#Cc1nc(-c2ccc(F)cc2)oc1NCCN1CCOCC1
 : 1	nt	nt	nt	0
COc1ccc(NC(=O)CSc2nc3c(c(=O)n2-c2ccc(F)cc2)SCC3)c(OC)c1
 : -3	i	i	i	-2
COc1ccc2c(c1)C(=NO)c1cc(OC)ccc1-2
 : -7	i	i	i	-1
C=C(C)Cn1c(CCNC(=O)C(C)(C)C)nc2ccccc21
 : -1	nt	nt	nt	-2
CCc1ccc2nc(NC(=O)CSCc3c(C)noc3C)sc2c1
 : 4	i	i	i	-3
CCn1c(=O)n(CC(=O)NCc2ccccc2OC)c(=O)c2ccccc21
 : -4	i	i	i	-4
CC1CCN(C(=O)c2scc3c2OCCO3)CC1
 : -6	nt	nt	nt	-1
COc1ccc(NC(=O)C(C)NS(=O)(=O)c2ccc(NC(C)=O)cc2)cc1Cl (configuration not stated)
 : 11	i	i	i	8
COc1ccc(C(=O)NCc2nnc(SC)n2C2CCCCC2)cc1
 : -3	i	i	i	4

# New compounds follow
# Below each compound – FPRL1 ligand	VCAM-1 inhibition	VCAM-1 augmentation	VCAM-1 down imaging	FPR binder
O=C(c1ccco1)N1CCN(C(=O)c2cc3c(=O)oc4ccccc4c3s2)CC1
 : 3	nt	nt	nt	7
CCOCCCNC(=O)C(c1ccccc1)N(Cc1ccc2c(c1)OCO2)C(=O)CNC(C)=O (configuration not stated)
 : -3	i	i	i	9
CCc1ccccc1NC(=O)c1onc(C)c1Cl
 : -6	nt	nt	nt	0
CCN(CC)C(=O)Cn1ncc2c1-c1ccccc1OC2
 : -2	i	i	i	1
COc1ccc(Cl)cc1NC(=O)C1CCCN(S(=O)(=O)c2cccc3nonc23)C1 (configuration not stated)
 : -3	nt	nt	nt	2
COc1ccc(C2/C(=C(/O)c3ccc(OC(C)C)cc3)C(=O)C(=O)N2CCCN2CCOCC2)cc1 (configuration not stated)
 : 2	i	i	i	0
CC1CCCC(C)N1C(=O)c1cc(-c2ccc(Cl)c(Cl)c2)on1 (configuration not stated)
 : -4	nt	nt	nt	-13
CC(NC(=O)COc1ccccc1)C(=O)NC1=NCCS1 (configuration not stated)
 : 5	i	i	i	10
C=CCn1c(=O)/c(=C/c2ccc(O)cc2)s/c1=C(/C#N)c1nnc2n1CCCCC2
 : -11	i	i	i	-14
O=C(CCCNS(=O)(=O)c1cccc2nsnc12)NCCc1ccccc1
 : 11	nt	nt	nt	18
COc1ccccc1-n1c(CNC(=O)c2ccc(S(=O)(=O)N3CCOCC3)cc2)n[nH]c1=S
 : -18	nt	nt	nt	-16
CC1(C)CC(=O)C2=C(C1)N(CCN1CCOCC1)C1=C(C(=O)CC(C)(C)C1)C2c1cccc(F)c1
 : 0	nt	nt	nt	-2
COc1cc2c(cc1OC)C(c1ccc(C)o1)CC(=O)N2 (configuration not stated)
 : -1	i	i	i	2
O=c1[nH]c(NC2CCCCC2)nnc1Cc1ccccc1
 : -10	nt	nt	nt	-13
COc1cc(NS(=O)(=O)c2ccc(NC(=O)CSC3=NCCS3)cc2)nc(OC)n1
 : -1	nt	nt	nt	4
Cc1nc2ccccc2n1S(=O)(=O)N(C)C
 : 9	nt	nt	nt	7
COc1ccccc1NC(=O)N1CCCC1C(=O)NC1CCCCC1 (configuration not stated)
 : -6	i	i	i	3
CC(C)OCCCNC(=O)CN1C(=O)CC(C)(C)S(=O)(=O)c2ccccc21
 : -1	nt	nt	nt	-4
Cn1c(=O)[nH]c(=O)c2c1nc(N(CCO)Cc1ccccc1)n2CCCc1ccccc1
 : -11	nt	nt	nt	-2
COc1ccc(-c2cc(C(=O)Nc3cnn(Cc4ccccc4C)c3)no2)cc1OC
 : 8	nt	nt	nt	0
CCCCCC1CC(=O)N(Cc2ccc(Cl)cc2)C(=O)N1 (configuration not stated)
 : 11	nt	nt	nt	-1
CCCCN1CN(S(=O)(=O)c2cccs2)c2nc3ccccc3nc21
 : 4	i	i	i	4
O=C1c2ccccc2-c2nc3ncnn3c(-c3ccccc3Cl)c21
 : -14	nt	nt	nt	-12
O=C(O)CC1SC(=Nc2cccc(O)c2)NC1=O (configuration not stated)
 : -6	nt	nt	nt	-4
O=C(Cn1cc2c(n1)CCCCC2)NCCN1CCOCC1
 : -4	nt	nt	nt	1
COc1ccccc1-c1c(C)nn2c(N3CCN(c4ccccc4OC)CC3)cc(C)nc12
 : -2	nt	nt	nt	-1
COc1ccc(NC(=O)c2cc(C(C)C)on2)cc1OC
 : -2	nt	nt	nt	9
CC(C)COC(=O)NCCCOC(=O)Nc1ccccc1
 : 8	nt	nt	nt	-3
C=CCSc1nc(N)c(C(=O)Nc2ccccc2C)cc1C(N)=O
 : 7	i	i	i	4
COc1ccccc1NS(=O)(=O)c1cccc2cccnc12
 : 10	nt	nt	nt	4
Oc1cc(NCc2cccnc2)ccc1-c1nc2ccccc2o1
 : -12	i	i	i	-13
COc1cc(C2C(C#N)=C(N)Oc3n[nH]c(-c4ccncc4)c32)cc(OC)c1OC (configuration not stated)
 : 8	nt	nt	nt	4
O=C(Cn1cnc2c(nnn2Cc2ccc(F)cc2)c1=O)NC1CCCC1
 : -9	nt	nt	nt	2
CC1(C)CC(=O)C(C=NCCN2CCNC2=O)=C(O)C1
 : 4	nt	nt	nt	10
CC(C)CN(CC(C)C)S(=O)(=O)N1CCC(C(=O)NCc2ccccn2)CC1
 : 0	nt	nt	nt	2
O=C(NC(C(=O)c1ccccc1)n1ccc(=O)[nH]c1=O)c1ccccc1 (configuration not stated)
 : 2	i	i	i	0
CC1CCC(NC(=O)C2c3ccccc3C(=O)N2CCCN2CCOCC2)CC1 (configuration not stated)
 : 3	nt	nt	nt	10
COc1cc(C(=O)Nc2cc(C)ccn2)cc(OC)c1OC
 : 0	i	i	i	-9
O=C(CSc1ncccn1)NCc1ccccc1
 : 2	i	i	i	-3
Cc1cc(N)n2nc(-c3ccccc3)cc2n1
 : -5	i	i	i	0
CC(=O)Nc1ccccc1OCC(=O)c1cc(C)n(Cc2cccs2)c1C
 : 4	i	i	i	-3
CCCc1cc(C(=O)NCc2ccco2)no1
 : -1	nt	nt	nt	0
